RanGTP-Imp inh – inhibitors of RanGTP-importin-beta interaction, primary screen, biochemical, FRET, CFP-Ran, YFP-importin-beta, homogeneous; cell-free CFP-Ran/YFP-importin-beta FRET ratio; inhibition, % (no concentration beside the values); 300,000 compounds, 1.1% hits;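 active = most replicates above 15%; inconclusive = exactly half above 15%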;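 note: 0% = DMSO wells and 100% = Ran loaded with GDP instead of GTP; wells of about 40 µL received 100 nL stock; the first replicate is given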
LANA-H2A inh – blocks KSHV LANA binding to histone H2A/H2B. cell-free LANA-H2A/H2B peptide, fluorescence polarization. inhibition, % (test concentration not listed). 320,000 compounds, 0.6% hits; in the data active = inhibition mostly above about 10%, no sharp cut-off; inactive = mostly below about 6.7%;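 note: stock transfer was 7.5 nL into about 10 µL; 0% = median of vehicle wells and 100% = median of positive control wells; one replicate is shown; the record names a cut of 25% in any replicate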
Target sequence (Q9QR71 whole entry, looked up): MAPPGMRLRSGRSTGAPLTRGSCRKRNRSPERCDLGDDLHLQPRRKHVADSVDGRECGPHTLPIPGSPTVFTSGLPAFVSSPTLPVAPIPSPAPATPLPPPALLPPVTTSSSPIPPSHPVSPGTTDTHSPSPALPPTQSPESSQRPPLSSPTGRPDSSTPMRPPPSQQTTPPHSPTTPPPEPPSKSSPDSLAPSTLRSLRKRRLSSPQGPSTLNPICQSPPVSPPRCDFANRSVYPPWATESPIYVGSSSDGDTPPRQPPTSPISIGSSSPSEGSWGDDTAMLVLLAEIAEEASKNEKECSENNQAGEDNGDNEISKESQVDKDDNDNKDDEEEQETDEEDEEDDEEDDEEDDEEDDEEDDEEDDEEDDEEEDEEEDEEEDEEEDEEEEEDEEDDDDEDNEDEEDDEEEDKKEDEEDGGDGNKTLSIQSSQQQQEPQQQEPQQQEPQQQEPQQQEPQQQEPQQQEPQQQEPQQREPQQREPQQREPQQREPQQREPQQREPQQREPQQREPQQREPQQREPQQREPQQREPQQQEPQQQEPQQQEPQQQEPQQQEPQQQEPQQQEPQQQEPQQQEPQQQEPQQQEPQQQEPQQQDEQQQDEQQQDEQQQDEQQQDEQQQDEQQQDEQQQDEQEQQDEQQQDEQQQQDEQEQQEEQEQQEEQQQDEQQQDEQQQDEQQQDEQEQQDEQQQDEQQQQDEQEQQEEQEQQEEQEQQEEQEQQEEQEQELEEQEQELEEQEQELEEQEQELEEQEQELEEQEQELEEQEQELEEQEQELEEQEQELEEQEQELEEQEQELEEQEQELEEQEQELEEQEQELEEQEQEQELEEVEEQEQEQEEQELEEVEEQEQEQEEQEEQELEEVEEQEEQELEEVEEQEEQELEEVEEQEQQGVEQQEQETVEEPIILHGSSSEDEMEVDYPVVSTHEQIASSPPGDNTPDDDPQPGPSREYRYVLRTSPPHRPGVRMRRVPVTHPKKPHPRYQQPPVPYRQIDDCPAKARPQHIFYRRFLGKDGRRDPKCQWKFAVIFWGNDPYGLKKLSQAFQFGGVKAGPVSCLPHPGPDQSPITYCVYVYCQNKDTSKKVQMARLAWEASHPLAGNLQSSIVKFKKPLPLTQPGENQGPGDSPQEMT
HNF4A DNA FP – change in binding of human HNF4 alpha to DNA. P41235. HNF4a-FITC DNA binding, fluorescence polarization, 1 h. activity change, % at 10 µM. 360,000 compounds, 0.3% hits. AID 1224865; in the data active = activity change above about 30%, passing the limit was not always enough;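 note: controls were the assay level and a saturating level of protein; the project sought stronger binding though the title names inhibitors; some compounds called inactive have numbers as strong as hits; positive values seem to mean higher polarization but the record does not say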
Calb FLC – affects C. albicans growth with fluconazole; C. albicans CaCi-2 (fluconazole-resistant clinical isolate) + fluconazole, Alamar Blue growth, 48 h; growth inhibition, % (concentration not given with the values); 300,000 compounds, 0.57% hits; AID 1979;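 active = most replicates above 75%; inconclusive = exactly half above 75%; inactive = most below 75%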;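 note: all wells also contain fluconazole at 8 µg/ml as a sub-toxic cotreatment; 0% = median of DMSO wells and 100% = median of geldanamycin control wells; wells of about 8 µL received 7.5 nL stock; the first replicate is given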
ALR H2O2 inh – human ALR oxidase inhibition via reduced H2O2; AID 485317; P55789; purified ALR, DTT oxidation, H2O2 HRP-luminol luminescence; 290,000 compounds, 3.8% hits; inhibition, % (test concentration not listed);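 active = mean and each replicate at 75% or more; inconclusive = only one of the two met; inactive = neither met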;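 note: stock transfer was 7.5 nL into about 7.5 µL; 0% = neutral wells and 100% = wells with inactivated enzyme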
Vif A3G – inhibitors of Vif binding to APOBEC3G peptide, primary screen, biochemical, TR-FRET, GST-Vif 1-94, biotin-A3G peptide, dose response retest (AID 1117319) | inhibition, %, or IC50 in µM where a hit was titrated | 260,000 compounds, 0.57% hits | TR-FRET GST-Vif / biotin-A3G peptide binding; higher % means a stronger effect; test concentration not given here; strong numbers were not always called active;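 active = above the screen mean plus three standard deviations and confirmed in dose response; inconclusive = results disagree or hit not tested in dose response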;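 note: Vif residues 1-94 fused to GST binding biotinylated APOBEC3G peptide 110-148; 0% = full assay without inhibitor and 100% = GST in place of GST-Vif; retest series ran down from 100 µM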
Beta2AR agonist – activates human beta-2 adrenergic receptor causing internalization. Am2.2-beta2AR cells, FAP receptor internalization, flow cytometry; reference of the scale not given here. P07550. response, % (concentration not given with the values). 340,000 compounds, 0.43% hits. AID 504454;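 active = response above a set limit, near 3 SD of response in nonfluorescent compounds, cut at about 42% in these data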;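 note: stock transfer was 100 nL into about 11 µL; a reference agonist was the positive control; negative values mostly stem from fluorescent compounds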
Active calls of the source: *; ? = inconclusive; · = no result given.

SMILES	RanGTP-Imp inh	LANA-H2A inh	HNF4A DNA FP	Calb FLC	ALR H2O2 inh	Vif A3G	Beta2AR agonist
O=C(Nc1nc(N2C(=O)c3ccccc3C2=O)n(-c2ccccc2)n1)c1ccc(F)cc1	-0.7	0.6	0.4	0	20	-4%	-3
O=C(NC(=S)Nc1nc(-c2ccccc2)cs1)c1cncc(Br)c1	3.2	1.3	0.7	5	2	2%	10
CC(C)(C)NC(=O)c1c(F)c(F)c(F)c(F)c1F	7.7	0.4	-4.7	-7	1	·	23
O=C1NC[C@H](c2ccccc2)OC(=O)[C@@H](Cc2ccc(F)cc2)C/C=C\C[C@H]1CC(=O)N(CCO)Cc1ccccc1	·	5.1	0.1	·	2	·	13
Cc1ccc2c(c1)c1ncnc(N3CCc4ccccc4C3)c1n2C	1.8	-2.8	·	-1	13	-5%	·
Cn1cc(CNC(=O)c2cc(-c3ccc(Br)cc3)nc3ccccc23)cn1	1.7	-0.1	0.6	-5	-31	-48%	-5
O=S(=O)(NCC(c1ccco1)N1CCN(c2ccccc2F)CC1)c1ccccc1 (stereo not given)	-1.4	-8.1	4.5	-7	1	-4%	-2
O=C(Nc1cc(S(=O)(=O)N2CCOCC2)ccc1O)c1ccco1	3.8	-1.9	0.3	-6	-3	15%	3
COc1ccc(S(=O)(=O)N2CCC(C(=O)NCc3ccccn3)CC2)cc1OC	-0.9	-0.7	1.4	-10	1	?	-3
O=C(CSc1ccccn1)N/N=C/C=C/c1ccccc1	-2.6	0.4	-1.6	-21	-11	2%	-2
CCOc1ccc(NC(=S)N(CCN2CCOCC2)Cc2ccc3c(c2)CCCN3CC)cc1	4.7	1.4	-2.6	5	·	10%	-3
CCOC(=O)N1CCN(C(=O)c2cc(C)c3c(C)nn(-c4ccccc4)c3n2)CC1	2.4	-2.5	1.1	-5	-6	19%	11
Cc1cccc(OCCn2nnc3ccccc32)c1C	1.0	-3.6	-5.8	-21	-2	0%	-1
COC(=O)C(NNc1ccccc1C)(NC(=O)c1ccc(F)cc1)C(F)(F)F (stereo not given)	1.9	-4.9	2.6	-11	98*	6%	13
CCOC(=O)CN1C(=O)N[C@@H](c2cccc(C(F)(F)F)c2)C(C(C)=O)=C1C	-4.5	-1.0	-3.3	0	-7	·	-9
CCN(CC(=O)NCCc1ccccc1)S(=O)(=O)c1ccc(Br)cc1	-2.8	-6.4	1.5	3	0	2%	0
Cc1cc(N2C(=O)C(O)=C(C(=O)c3ccco3)C2c2cccc(O)c2)no1 (stereo not given)	3.6	3.6	4.7	45	-4	1%	-3
CCOc1ccccc1NC(=O)N1CCN(S(C)(=O)=O)CC1	-3.0	-0.3	3.6	-2	-3	·	1
Cc1ccc(CNC(=O)c2ccc(N3CCC4(CC3)CC(c3cccc(Br)c3)=NO4)c(N)c2)cc1	-1.6	-2.3	-1.2	-10	·	·	-4
Cc1cc(/C=C2\SC(=S)N(Cc3ccco3)C2=O)c(C)n1-c1ccccc1	21*	0.9	45*	-89	-2	4%	-247

Three entries out of the list above, ordered by their value in Beta2AR agonist, low to high.
Structure	RanGTP-Imp inh	LANA-H2A inh	HNF4A DNA FP	ALR H2O2 inh	Vif A3G	Beta2AR agonist
Cn1cc(CNC(=O)c2cc(-c3ccc(Br)cc3)nc3ccccc23)cn1	1.7	-0.1	0.6	-31	-48%	-5
Cc1ccc(CNC(=O)c2ccc(N3CCC4(CC3)CC(c3cccc(Br)c3)=NO4)c(N)c2)cc1	-1.6	-2.3	-1.2	·	·	-4
COc1ccc(S(=O)(=O)N2CCC(C(=O)NCc3ccccn3)CC2)cc1OC	-0.9	-0.7	1.4	1	?	-3

Other entries follow.
SMILES	RanGTP-Imp inh	LANA-H2A inh	HNF4A DNA FP	Calb FLC	ALR H2O2 inh	Vif A3G	Beta2AR agonist
CCCCCCC(=O)Nc1c(O)c2ccccc2[nH]c1=O	?	0.8	2.4	22	-9	?	2
Cc1nc2sccn2c(=O)c1Br	-0.7	1.6	-1.6	-3	-6	·	10
COc1ccc(C(=O)NCCCn2ccnc2)cc1	-0.6	-7.9	-2.7	4	-13	0%	12
CCc1nc(SCc2cccnc2)c2c(=O)n(C)c(=O)n(C)c2n1	1.6	0.8	-0.1	-13	2	-3%	-11
CC(Oc1ccc(Cl)cc1Cl)C(=O)Nc1ccncc1 (stereo not given)	3.5	3.4	-4.0	-2	-6	2%	-9
Cc1c(C(=O)O)c(C(=O)O)nc2ccc(N3CCOCC3)cc12	?	-0.5	·	46	-23	·	·
Cc1cc(C)c(NC(=S)N2CCCC2C(=O)O)c(C)c1 (stereo not given)	3.8	3.5	-1.1	2	-7	-1%	-11
O=C(NCc1ccccc1F)c1ccc2c(c1)OCCO2	-1.5	-0.7	1.4	0	-3	·	2
CC(C)[C@H](NC(=O)NCCC1=CCCCC1)C(=O)O	-4.1	-3.3	-1.2	-3	0	2%	10
CC1CNC(=S)N(c2ccc(F)cc2)C1=O (stereo not given)	·	·	0.7	·	·	-6%	0
CCOc1ccc(CN2CCNC(=O)C2CC(=O)NCc2cc(C)n(C)n2)cc1 (stereo not given)	2.1	1.9	0.1	-1	-18	·	1
COc1cc(OC)c(NC(=O)CCCn2c(=O)oc3ccccc32)cc1Cl	4.0	0.4	4.8	16	-6	10%	7
Cc1ccc(S(=O)(=O)/N=C2/C=C(Sc3ncn[nH]3)C(=O)c3ccccc32)cc1	·	-5.3	1.0	·	-28	21%	85*
C[C@H](NC(=O)[C@@H]1CSC2c3ccccc3C(=O)N21)C(=O)NCc1c(F)cccc1Cl (stereo not given in full)	1.9	-2.9	1.4	8	-2	·	-4
CC(C)(C)OC(=O)N1CCC(C(=O)Nc2ccc(C(=O)NCc3ccccc3)cc2)CC1	·	·	-5.2	·	·	2%	-2
Cc1ccc(S(=O)(=O)N2CCC(C(=O)OCC(=O)N3CCC(C)CC3)CC2)cc1C	-0.4	-3.0	0.4	1	·	-2%	-9
CC(C)Sc1ccc(C(=O)Nc2ccc(F)cc2F)cn1	2.2	-1.6	-0.9	-3	-36	-11%	-2
COc1ccc(N2CCN(C(=O)c3ccc(F)cc3)CC2)c([N+](=O)[O-])c1	4.3	3.3	5.0	0	-1	-5%	-1
CC(=O)NC(CC(=O)Nc1ccc(S(=O)(=O)N2CCCCC2)cc1)c1ccccc1 (stereo not given)	5.2	1.5	-0.5	18	-1	-3%	4
COc1cccc(OCC(O)CN2CCN(c3ccc(F)cc3)CC2)c1 (stereo not given)	2.1	-6.1	-2.0	4	44	6%	-11
COc1cccc(NC(=O)Nn2cnnc2)c1	2.1	-8.1	-0.9	19	-2	3%	4
CCOC(=O)c1ccc(NC(=O)NS(=O)(=O)c2ccc(C)cc2)cc1	-0.1	-2.9	-2.8	-2	18	5%	3
O=C(Cc1noc2ccccc12)Nc1ccc(Cl)cc1	2.4	1.4	-0.7	-8	-9	-5%	-10
O=C(CS(=O)(=O)c1ccccc1)c1cc2cc(F)ccc2oc1=O	1.0	-4.2	1.9	42	31	·	4
COC(=O)c1ccc(CSc2nc3ccc(S(N)(=O)=O)cc3[nH]2)cc1	0.5	0.2	1.7	2	-7	·	-12
CC(NC(=O)c1ccccc1)C(c1cccs1)N1CCOCC1 (stereo not given)	-3.7	1.5	0.5	-1	-19	2%	-2
COc1cccc(-n2nnc3c(=O)n(Cc4ccccc4Cl)cnc32)c1	2.0	6.0	-37	-10	-5	19%	3
O=C(COC(=O)/C=C/c1cccc([N+](=O)[O-])c1)NCc1ccc2c(c1)OCO2	0.4	-1.1	1.6	3	-9	0%	6
c1ccc(C2CC(c3ccccc3)n3ncnc3N2)cc1 (stereo not given)	1.2	3.5	-5.0	2	1	4%	-3
CCCOc1ccc(N2C(=O)CC(NNC(=O)c3ccc(COc4ccccc4)o3)C2=O)cc1 (stereo not given)	-3.5	6.2	-0.8	9	-10	-2%	-12
O=C(NC1CCCC1)C(c1ccccc1)N(Cc1ccc2c(c1)OCO2)C(=O)Cc1cccs1 (stereo not given)	0.0	-0.7	0.3	-48	-3	4%	11
CCc1ccccc1NC(=O)C1CCCN1S(=O)(=O)c1ccc(-c2ccc(=O)[nH]n2)s1 (stereo not given)	2.9	2.9	-3.2	3	-9	·	0
Cc1ccc(C(=O)Nc2nnc(S(=O)(=O)N3CCN(c4ccc(F)cc4)CC3)s2)cc1	-1.5	-6.4	1.4	3	-3	·	5
Cc1cc(C)c(C#N)c(SCc2ccc(C#N)cc2)n1	-4.0	-0.7	1.1	-2	-4	4%	-11
Cc1ccc(S(=O)(=O)NCC[C@@]2(C)C3CCC2(C)C(=O)C3)cc1 (stereo not given in full)	2.3	1.3	1.4	4	-5	4%	-1
O=[N+]([O-])c1cc2c(c(CSc3nnc4ccccn34)c1)OCOC2	-1.6	-1.2	-4.5	1	2	·	0
O=C(COc1ccc(S(=O)(=O)N2CCOCC2)cc1Cl)N1CCOCC1	3.5	-2.2	-1.9	1	3	·	3
O=S(=O)(/N=C(/Nc1ccc(F)cc1F)c1ccc(Cl)cc1)c1ccccc1	-0.9	-2.8	-1.6	5	-5	0%	-5
CCc1cccc2c(C(=S)N3CCOCC3)c[nH]c12	-3.4	-1.4	1.9	6	34	12%	-99
O=C1C(=O)c2c(C(=O)c3ccccc3)coc2-c2ccccc21	6.1	7.8	6.2	-12	51	20%	3
CCOc1ccc(S(=O)(=O)N2CCCCC2)cc1NC(=O)C1COc2ccccc2O1 (stereo not given)	·	-3.9	-2.9	·	-3	·	2
N#Cc1c(C(F)(F)F)cc(-c2cccs2)nc1SCC(=O)O	0.9	0.7	4.4	5	·	·	24
CCc1nnc(NC(=O)c2cc(C)nc3ccccc23)s1	1.3	0.9	1.8	5	·	0%	2
COc1ccc(-n2cc(CNCCc3cnc[nH]3)c(-c3cccc(F)c3)n2)cc1	-0.6	0.0	-7.2	1	1	-1%	10
Fc1ccc(Sc2nc(-c3ccccc3)nnc2C(F)(F)F)cc1	-3.1	-0.8	-1.5	-4	-8	12%	44*
O=S(=O)(Nc1ccc(-c2nc3cccnc3s2)cc1)c1cc(F)ccc1F	9.7	-1.9	9.6	4	-6	-5%	11
O=C(O)c1cc(S(=O)(=O)N2CCCCC2)ccc1F	5.5	-0.3	3.4	-2	-1	-4%	-1
O=C(O)c1ccc(CSc2nc(-c3ccc(Cl)cc3)cc(C(F)(F)F)n2)cc1	2.6	-11	-1.1	-2	-3	2%	0
O=S1(=O)CC2SC(=S)N(Cc3ccccc3)C2C1 (stereo not given)	?	3.9	-0.6	-14	-11	-10%	3
COc1ccc(CN(C)C(=O)[C@H](Cc2ccccc2)NC(=O)c2ccco2)c(OC)c1	·	-1.5	2.5	·	1	7%	13
(next part)
SMILES	RanGTP-Imp inh	LANA-H2A inh	HNF4A DNA FP	Calb FLC	ALR H2O2 inh	Vif A3G	Beta2AR agonist
NC(=O)NCc1cccc(Cl)c1	4.0	-2.0	-0.3	-9	-1	-3%	-9
Cc1cc(-c2nn(-c3ccccc3F)cc2CN2CCC(C(N)=O)CC2)c(C)s1	2.8	2.3	0.4	-2	-4	?	-3
O=C(CS(=O)(=O)Cc1ccccc1)Nc1nc2ccccc2s1	-0.8	1.2	0.9	1	-1	-2%	5
COC(=O)c1sc(S(=O)(=O)NC(C)C(=O)O)c(C(=O)OC)c1C (stereo not given)	0.7	-2.1	-2.1	12	-2	·	-1
CCOC(=O)Cn1c(=O)c(C#N)cn(C(C)C)c1=O	-1.5	2.4	-0.7	-3	-7	5%	-4
COc1cccc(Nc2nn3c(=O)c4ccccc4nc3s2)c1	·	-2.9	0.5	·	61	·	9
O=C(CCc1nnc(CCCc2ccccc2)o1)NCCN1CCOC1=O	3.3	-5.3	4.7	-4	-7	0%	-1
CC(=O)c1cc2c(=O)c3cc(C)ccc3oc2nc1C	0.6	-0.3	0.9	-2	3	-21%	-1
CCSc1ccccc1C(=O)NCCc1ccccc1	0.6	4.5	4.1	-8	-5	1%	1
O=C1OC(c2ccccc2)=C/C1=C\N1CCOCC1	-2.2	11	-1.4	22	12	11%	22

Assay outcomes: PubChem BioAssay, several laboratories
